Compound activity as filed in PubChem.
Sa growth 42C = inhibitors of Staphylococcus aureus growth at 42 °C | S. aureus RN4220 growth, OD600, 20 h; hits give low values | relative growth, % (concentration not given with the values) | 170,000 tested, 0.53% active;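 active = growth at 42 °C up to 50% and 20 or more points under that at 30 °C, or under 10% at both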;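 also: 300 nL library stock went into each well; scaled to the means of positive and negative controls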
GIV Gai3 FP = inhibitors of GIV GBA-motif binding to rat Galpha-i3; 210,000 tested, 0.42% active; P08753; percent of control (FP), % (concentration not given with the values); Galpha-i3/FITC-GIV peptide fluorescence polarization, 90 min; hits give low values; scaled: aluminum fluoride 0%, vehicle 100%;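 active = replicate mean at 85% of control or lower, very high polarization wells dropped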;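 also: wells of about 15 µL received 100 nL stock; the first replicate is given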
Target sequence (P08753 whole entry, looked up): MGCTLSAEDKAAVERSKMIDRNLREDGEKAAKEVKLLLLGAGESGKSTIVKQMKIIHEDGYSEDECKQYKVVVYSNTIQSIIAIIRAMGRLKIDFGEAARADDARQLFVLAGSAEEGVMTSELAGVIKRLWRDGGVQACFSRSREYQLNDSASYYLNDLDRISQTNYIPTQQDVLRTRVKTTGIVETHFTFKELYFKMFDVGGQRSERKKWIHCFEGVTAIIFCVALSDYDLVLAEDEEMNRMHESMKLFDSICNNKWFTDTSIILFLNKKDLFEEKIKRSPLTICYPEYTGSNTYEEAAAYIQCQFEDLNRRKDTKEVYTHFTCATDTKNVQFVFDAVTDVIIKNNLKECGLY
HCMV UL50-53 inh = disrupts HCMV UL50-UL53 complex binding | 190,000 tested, 0.15% active | inhibition, % (no concentration beside the values) | AID 1918969 | HTRF UL50-UL53 interaction, normalized percent inhibition;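 active = both replicates at 50% or more, plus weaker picks with an unusually low signal ratio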;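 also: stock transfer was 100 nL into about 20 µL; 0% = negative control wells and 100% = wells with untagged competitor protein; inactives centre near -12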
Sa growth 42C second temp = recorded beside Sa growth 42C, whose call it bears; relative growth, %; measured here: growth at 30 °C;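 optical density after 20 h as mean of two plates; 100% = untreated growth and lower means inhibition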
* hit, by the source's call; · = no result given; & = joins results of further samples; ! = not confirmed by another sample.

SMILES	Sa growth 42C	Sa growth 42C second temp	GIV Gai3 FP	HCMV UL50-53 inh
Cc1ccc2onc(CNC(=O)NCc3cccc(Cl)c3)c2c1	92.2	82.0	100.2	·
C1=CCC(C2OCC(CN3CCOCC3)O2)CC1 (stereo unspecified)	98.3	91.4	102.3	-10.3
CCCC/C(O)=C1/C(=O)CC(C)(C)CC1=Nc1ccccc1OC	100.8	94.5	·	-8.4
COc1cc(Cl)ccc1S(=O)(=O)Nc1ccc2nnc(-c3cccc(Br)c3)n2n1	·	·	105.0	-38.3
Cc1cccc(N2CCN(c3ncnc4onc(-c5ccc(F)cc5)c34)CC2C)c1 (stereo unspecified)	93.8	85.9	98.1	·
O=C(OCCCN=C1NS(=O)(=O)c2ccccc21)c1ccc(Br)cc1	·	·	99.4	-2.9
CC1(C)COC(CC(=O)c2cccs2)=N1	84.7	84.9	100.7	-22.0
CN(c1ccccc1)S(=O)(=O)c1nnc(NC(=O)C2CCCCC2)s1	81.1	77.2	101.8	-13.2
O=S(=O)(NCC1CCN(S(=O)(=O)c2ccccc2)CC1)c1cccc2nonc12	89.6	90.9	108.0	-106.8
CCOC(=O)c1c(C)c(C(=O)NCc2ccc(Cl)cc2)c(C)n1CC	96.2	87.0	101.4	-37.6
CN(Cc1ccccc1)C(=O)C1CC(=O)N(CCc2c[nH]c3ccc(Cl)cc23)C1 (stereo unspecified)	·	·	103.7	-7.0
CCn1c(CCNC(=O)C2(c3ccc(Cl)cc3)CCC2)nnc1SC	83.6	91.5	97.8	-9.5
COc1ccc(-c2nn[nH]n2)cc1	72.9	96.9	109.7	-2.8
Cc1ccc(C2CCN(C(=O)c3cnn(-c4ccc(C)cc4)c3C3CCN(C(=O)OC(C)(C)C)CC3)C2)cc1 (stereo unspecified)	108.6	105.2	105.5	·
COc1ccc(Sc2ccc(OC)cc2C(=O)O)c(C(=O)O)c1	91.1	87.5	106.0	-25.9
O=C(Cn1ncc2ccccc21)NCC1CCCO1 (stereo unspecified)	109.5	85.6	102.9	1.1
Clc1cc(NCc2ccc3c(c2)OCO3)ccc1N1CCOCC1	118.5	95.3	·	-6.2
CC(C)N(CCC#N)C(=O)c1c[nH]c2ccccc2c1=O	77.2	89.2	·	-15.5
N=c1oc2c(Cl)cc(Cl)cc2cc1C(=O)Nc1ccc(F)cc1	112.6	88.3	100.4	-8.1
Cc1ccc(NC(=O)N(Cc2c[nH]c3ccccc23)C2CCCCCC2)cc1C	106.0	98.0	100.6	-18.4
CCC[C@@H]1C[C@@H](C(=O)N[C@@H](C2O[C@H](SC)[C@H](O)[C@@H](O)[C@H]2O)[C@H](C)Cl)N(C)C1 (stereo partly specified)	-1.1*	-0.9*	·	-14.7&-14.9
Cc1ccc(C(=O)OCC(=O)C(C)(C)C)cc1N1C(=O)c2c(C)nc3ccccc3c2C1=O	·	·	98.0	-5.7
Cc1ccc(Sc2c(C(=O)O)cnc3c2c(C)nn3C)cc1	103.5	81.0	96.8	-25.8
Cc1cc(=O)oc2cc(OC(C)C(=O)NCC3CCCO3)ccc12 (stereo unspecified)	112.4	83.9	103.9	-8.4
Cc1nn(-c2ccccc2)c(C)c1Sc1ccccc1N	94.2	61.3	·	7.0
Cc1ccc(-c2ncc(C(=O)NCc3cccc(F)c3)c(C)n2)cc1	·	·	111.4	0.0
CCCNC(=O)Cc1ccc(-n2c(=O)c3ccccc3n(CC(=O)Nc3ccc(C)cc3Cl)c2=O)cc1	·	·	106.9	6.6
CC(CCc1ccccc1)NC(=O)C1CCN(C(=O)c2sccc2-n2cccc2)CC1 (stereo unspecified)	·	·	104.1	-4.4
CCOC(=O)N1CCN(C2=Nc3cccc4cccc2c34)CC1	118.6	94.5	·	-51.5
CN1CCc2c(sc3c2CN(C(=O)Nc2ccc(F)cc2)C(c2ccc(F)cc2)c2cccn2-3)C1 (stereo unspecified)	·	·	107.8	-27.6

Pulled by structure from the list above:
SMILES	Sa growth 42C	Sa growth 42C second temp	GIV Gai3 FP	HCMV UL50-53 inh
CCC[C@@H]1C[C@@H](C(=O)N[C@@H](C2O[C@H](SC)[C@H](O)[C@@H](O)[C@H]2O)[C@H](C)Cl)N(C)C1 (stereo partly specified)	-1.1*	-0.9*	·	-14.7&-14.9
Cc1cc(=O)oc2cc(OC(C)C(=O)NCC3CCCO3)ccc12 (stereo unspecified)	112.4	83.9	103.9	-8.4
Cc1ccc(C(=O)OCC(=O)C(C)(C)C)cc1N1C(=O)c2c(C)nc3ccccc3c2C1=O	·	·	98.0	-5.7
Cc1nn(-c2ccccc2)c(C)c1Sc1ccccc1N	94.2	61.3	·	7.0
CC(CCc1ccccc1)NC(=O)C1CCN(C(=O)c2sccc2-n2cccc2)CC1 (stereo unspecified)	·	·	104.1	-4.4

Next entries follow.
SMILES	Sa growth 42C	Sa growth 42C second temp	GIV Gai3 FP	HCMV UL50-53 inh
Cc1cccc(C(=O)N2CCc3cc(CNC(=O)Cc4ccc(F)cc4)ccc32)c1	108.2	91.8	105.2	·
CCOc1ccc(NC(=O)OC(C)(C)C)cc1	102.9	92.9	98.8	-25.5
O=C(Cn1cc2c(n1)CCCC2)NCCc1ccccc1	115.5	99.5	104.5	-1.3
CCn1c(NC(=O)C2CCCCC2)nc2ccccc21	·	·	99.2	-9.6
COC(=O)c1cc(S(=O)(=O)NCCC(=O)NCc2ccc(Cl)cc2)cn1C	·	·	99.4	-16.9
O=C(Nc1ccccc1C(=O)OCc1cc(=O)n2c3c(sc2n1)CCCC3)c1ccc(F)cc1	113.4	95.2	101.7	·
Cc1[nH]n(-c2ccc([N+](=O)[O-])cc2)c(=O)c1C=NCCc1ccc(S(N)(=O)=O)cc1	·	·	103.5	-30.1
CC1CCCN(S(=O)(=O)c2ccc3[nH]c(=O)cc(C(=O)NCCCN4CCCCC4C)c3c2)C1 (stereo unspecified)	90.1	87.7	99.9	·
NC(=O)c1ccc(NC(=O)c2cn(-c3ccccc3)nc2-c2cccs2)cc1	106.3	87.2	·	-12.2
CC(C)CCNC(=O)Nc1ccc2c(c1)N(C)C(=O)c1ccccc1S2	126.4	59.0	106.1	25.2
COc1nonc1-n1nnc(C(=O)c2ccccc2)c1C	102.1	74.5	·	3.0
COc1ccccc1OCCn1cc(C=C2C(=O)NC(=S)NC2=O)c2ccccc21	·	·	103.9	-31.0
Cc1ccc(CNC(=O)Cn2ccn(-c3ccc(F)cc3)c(=O)c2=O)cc1	95.3	85.6	97.3	-33.9
COc1cccc(N2CCN(C(=O)c3cnc(N4CCCC4)nc3)CC2)c1	103.0	92.6	109.0	-18.9
CCCCN1C(=O)c2[nH]nc(-c3ccccc3O)c2C1c1ccc(OCc2ccccc2)cc1 (stereo unspecified)	90.5	75.3	97.6	6.0
Cc1ccccc1Nc1nc(N)nc(CSc2nc3ncc(Cl)cc3[nH]2)n1	108.4	89.6	·	-33.8
CCOC(=O)c1[nH]c(C)c(C(=O)OCC(=O)N2CCC(c3ccccc3)=N2)c1C	106.7	96.3	·	-17.1
CC(C)(C)c1cn(-c2ccc(Cl)cc2)c(=S)[nH]1	100.2	99.9	96.5	-8.0
Cc1ccc(Oc2c(C(F)(F)F)oc3c(CN4CCCCC4)c(O)ccc3c2=O)cc1	102.7	85.5	104.9	-17.4
Cc1nc2cc(-c3noc(C(C)Oc4ccccc4)n3)ccc2n(C2CCCC2)c1=O (stereo unspecified)	·	·	112.1	3.1
COc1cccc(Oc2ccc(OC)cc2C(=O)NN)c1	93.7	83.6	101.6	-48.8
O=C1CC(c2cc(F)cc(F)c2)Cc2nc(N3CCc4ccccc43)ncc21 (stereo unspecified)	·	·	101.8	-5.2
CCN1CCN(C(=O)c2ccc(CNS(=O)(=O)c3cccc(OC)c3)cc2)CC1	100.4	99.1	107.9	-8.1
O=C(NCCN1CCOCC1)c1cnn2c(C(F)F)cc(-c3ccccc3)nc12	99.3	78.6	108.9	-47.8
CCCc1noc(-c2cc(S(=O)(=O)NC)ccc2OC)n1	·	·	100.6	13.2
Cc1c(Cl)cccc1-n1c(SCC(=O)NCc2ccccc2)nc2n[nH]c(C)c2c1=N	120.5	92.3	99.6	·
Fc1ccc(Nc2cccc3nonc23)cc1	88.3	81.4	160.8	·
Cc1cccc(N2CCN(C(=O)CS(=O)(=O)c3cccc4nsnc34)CC2C)c1 (stereo unspecified)	84.7	86.3	105.4	·
COc1ccc(NC(=O)CCCn2c(=O)c3sccc3n(Cc3ccccc3)c2=O)cc1	97.3	75.8	106.0	·
O=C(Nc1ccc2nc(SCC(=O)N3CCOCC3)sc2c1)C1CCCCC1	·	·	102.9	-15.4
CN(Cc1ccco1)C(=O)c1cc2c(s1)-c1ccccc1OC2	88.8	61.2	103.3	3.5
CCc1cccc(C)c1NC(=O)CN1CCCN(Cc2ccc(C)cc2)S1(=O)=O	103.9	100.2	104.0	·
CCn1c(=O)c(C(=O)CN(C)Cc2ccc(F)cc2)c(N)n(Cc2ccccc2)c1=O	103.7	95.3	·	-15.9
O=C(NC(=O)c1ccccc1Cl)c1ccccc1O	131.2	59.1	101.3	-38.2
COc1ccccc1-c1noc(-c2ccc(N3CCOCC3)c([N+](=O)[O-])c2)n1	99.5	84.0	100.8	-1.3
CCOC(=O)c1ccc(Cl)c(NC(=S)N(C)C)c1	76.5	82.9	99.8	-23.7
CN(Cc1ccccc1)C(=O)CCS(=O)(=O)c1cc(Br)cc2c1N(C(=O)C1CC1)CC2	91.7	81.1	104.4	-6.2
Cc1nn(C(=O)COc2ccc(Cl)cc2)c(C)c1Sc1ccccc1	102.7	90.9	103.4	-11.3
Cc1ccc(Cn2cnc3nc4c(cc3c2=O)CC(C)CC4)cc1 (stereo unspecified)	97.2	85.2	112.2	·
Cc1ccc(N(CC(=O)Nc2cc(C)cc(C)c2)S(=O)(=O)c2cccc3nonc23)cc1	112.4	95.5	100.8	-22.1
COc1ccc(CNC(=O)c2ccc(N3CC4CC(C3)c3cccc(=O)n3C4)c(N)c2)cc1 (stereo unspecified)	105.4	89.0	106.3	-25.7
CC1CCN(C(=O)c2cccc(N3C(=O)C4C5C=CC(C5)C4C3=O)c2)CC1 (stereo unspecified)	97.7	89.9	99.8	-10.6
CCCCN1CN=C(Nc2nc(C)c3ccccc3n2)NC1	109.9	81.6	100.5	·
COc1cc(OC)cc(-c2nc(-c3cccc(C)c3)no2)c1	108.0	104.5	106.7	-11.6
Cc1ccc(-n2nnc(C(N)=O)c2N)cc1	92.3	77.9	100.8	-7.8
Cc1cc(C)c2cc(C(=O)NCCN3CCCCC3)[nH]c2c1	120.7	99.5	104.8	0.6
CCOC(=O)c1c(NC(=O)N2CCOc3ccc(Cl)cc32)sc2c1CCCC2	80.2	83.8	96.7	·
CC(C)NC(=O)CN1C(=O)CCSc2ccc(S(=O)(=O)N3CCCC3)cc21	·	·	101.2	-1.5
O=S(=O)(NCCc1csc(-c2ccc(F)cc2)n1)c1ccc(F)cc1F	107.7	102.1	108.1	·
COc1ccc(C(=O)c2c(C)oc3ccc(OC)cc23)cc1	108.8	102.1	105.7	-10.6

Next entries.
SMILES	Sa growth 42C	Sa growth 42C second temp	GIV Gai3 FP	HCMV UL50-53 inh
CS(=O)(=O)N(CC(N)=O)Cc1ccc(F)cc1	95.7	101.2	102.8	-14.7
O=C1CS/C(=N\NC(=S)NCc2ccco2)N1	79.4	96.5	·	-6.3
O=C(Nc1cccc(-c2ncon2)c1)c1ccc(Cl)cc1	103.7	95.5	98.3	-2.9
Cc1ccc2nc(N3CCC(C(=O)N4CCN(c5cccc(C)c5C)CC4)CC3)[nH]c2c1	84.4	34.1	100.0	·
CC(C)(C)C(=O)COC(=O)[C@@H]1CC(O)CN1S(=O)(=O)c1ccc(F)cc1 (stereo partly specified)	99.4	95.5	·	-12.8
COc1ccc(-c2nc(CSCC(=O)NCc3ccc4c(c3)OCO4)c(C)o2)cc1	106.1	89.4	104.9	-13.9
CCOC(=O)c1c(NC(=O)c2cc(Cl)ccc2Cl)sc2c1CCCC2	92.0	84.9	110.1	-55.8
Nc1nc2[nH]c(=O)[nH]c(=O)c2s1	110.1	101.1	112.4	13.8
COc1ccc(NC(=O)N2CCN(CCn3c(C)nc4cccnc43)CC2)cc1Cl	·	·	102.5	-10.4
CN(C(=O)CSc1nnc(-c2ccccc2)o1)c1ccccc1	89.2	97.8	·	5.7

An excerpt from above in order of length of the SMILES, highest first:
SMILES	Sa growth 42C	Sa growth 42C second temp	GIV Gai3 FP	HCMV UL50-53 inh
CC(C)(C)C(=O)COC(=O)[C@@H]1CC(O)CN1S(=O)(=O)c1ccc(F)cc1 (stereo partly specified)	99.4	95.5	·	-12.8
COc1ccc(-c2nc(CSCC(=O)NCc3ccc4c(c3)OCO4)c(C)o2)cc1	106.1	89.4	104.9	-13.9
COc1ccc(NC(=O)N2CCN(CCn3c(C)nc4cccnc43)CC2)cc1Cl	·	·	102.5	-10.4
CCOC(=O)c1c(NC(=O)c2cc(Cl)ccc2Cl)sc2c1CCCC2	92.0	84.9	110.1	-55.8
O=C(Nc1cccc(-c2ncon2)c1)c1ccc(Cl)cc1	103.7	95.5	98.3	-2.9

(next part)
SMILES	Sa growth 42C	Sa growth 42C second temp	GIV Gai3 FP	HCMV UL50-53 inh
CCc1ccccc1N/C=C1/CCCCC1=O	105.1	93.2	104.7	-41.4
O=C(Oc1cccc2cccnc12)c1ccccc1	1.7*!	0.7*!	103.0	-53.3&3.9
CN1CCN(C(=O)C2CCCN(S(=O)(=O)N3CCCCC3)C2)CC1 (stereo unspecified)	107.8	103.5	112.8	-12.1
Cc1ccc(NC(=O)CN2C=NS(=O)(=O)c3ccccc32)c(C)c1	112.1	93.1	103.5	·
